RecA intein inh: inhibitors of M. tuberculosis RecA intein splicing; cell-free RecA intein splicing, fluorescence; inhibition, %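 (about 9 µM by stock and volumes)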; hit rate 0.75% among 290,000; P9WHJ3; AID 2221; in the data active means inhibition above about 30%; inconclusive means no clear call, values can overlap the other calls;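 further: 0% = vehicle wells and 100% = reference inhibitor control wells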
Target sequence (P9WHJ3 whole entry, looked up): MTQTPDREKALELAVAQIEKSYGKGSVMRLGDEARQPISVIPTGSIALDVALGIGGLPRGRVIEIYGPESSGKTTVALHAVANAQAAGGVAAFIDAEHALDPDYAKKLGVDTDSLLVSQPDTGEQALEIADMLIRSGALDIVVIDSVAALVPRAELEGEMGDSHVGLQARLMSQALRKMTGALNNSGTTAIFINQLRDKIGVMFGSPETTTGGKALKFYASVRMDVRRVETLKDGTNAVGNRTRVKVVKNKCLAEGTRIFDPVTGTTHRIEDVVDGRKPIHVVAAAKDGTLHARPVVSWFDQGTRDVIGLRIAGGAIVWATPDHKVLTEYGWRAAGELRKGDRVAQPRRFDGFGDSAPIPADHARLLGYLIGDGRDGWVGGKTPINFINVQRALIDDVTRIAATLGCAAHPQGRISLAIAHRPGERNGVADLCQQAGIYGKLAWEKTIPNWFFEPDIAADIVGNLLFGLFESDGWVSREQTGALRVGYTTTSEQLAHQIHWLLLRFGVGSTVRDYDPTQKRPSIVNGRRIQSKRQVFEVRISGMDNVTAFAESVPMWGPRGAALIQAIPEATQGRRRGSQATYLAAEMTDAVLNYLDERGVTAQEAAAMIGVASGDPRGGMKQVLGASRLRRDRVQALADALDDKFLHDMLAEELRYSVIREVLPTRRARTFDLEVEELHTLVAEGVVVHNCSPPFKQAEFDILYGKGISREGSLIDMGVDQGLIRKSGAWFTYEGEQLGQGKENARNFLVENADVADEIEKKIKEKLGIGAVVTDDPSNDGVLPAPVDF
Mtb betalactam: beta-lactam sensitization of Mtb H37Rv | M. tuberculosis H37Rv growth with meropenem, percent inhibition; hits of this screen are not shown here | inhibition, % at 25 µM | hit rate 0.27% among 330,000;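 active means about 74% or more and at least 40 points above the plate without the antibiotic, then above 30% in a dose series; inconclusive means first-round hits that could not be retested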;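 further: growth measured after seven days incubation then overnight dye step; 0% = bacteria only wells and 100% = bacteria with antibiotic; twin plates without the antibiotic show which effects depend on it; some results filed as inactive read as strong as hits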
YopH inh: YopH (Yersinia) phosphatase inhibition; fluorescence Ex485/Em525; inhibition, %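 (about 10 µM by stock and volumes)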; hit rate 0.16% among 140,000; AID 898;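 active means inhibition of 50% or more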;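 further: controls were vehicle for no effect and minimum signal wells for full effect; inactives centre near -20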
Mtb H37Rv: M. tuberculosis H37Rv growth inhibitors, H37Rv strain (AID 1626); M. tuberculosis H37Rv growth inhibition; higher % means a stronger effect; inhibition, % at 10 µM; hits with a dose series show IC50 in µM; hit rate 0.95% among 220,000;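 active means confirmed in a dose series; inconclusive means inhibition above 80% but not taken into the dose series; inactive means below 80% or under 30% at every dose of the series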;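 further: bacteria incubated seven days before Alamar blue readout; 0% = bacteria only wells and 100% = bacteria with antibiotic wells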
Arbovirus anti: antivirals against arbovirus infection. AID 1251. hit rate 0.37% among 200,000. inhibition, % at 10 µM. arbovirus infection cell-based antiviral screen;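 active means inhibition from about 30%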;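 further: bluetongue infection of BSR cells; cell survival read as ATP light after 72 h; 0% = infected wells without compound and 100% = uninfected wells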
Arbovirus anti repeat: further read-out of Arbovirus anti, marked with its call; inhibition, %; measured here: 10K subset replicate screen; many hits read low in the repeat;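 first of two repeat runs on a subset; 0% = infected and 100% = uninfected wells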
* hit, by the source's call; ? = inconclusive; nt = not tested or not shown. This is a subset; the hit share may differ from the screen's.

SMILES	RecA intein inh	Mtb betalactam	YopH inh	Mtb H37Rv	Arbovirus anti	others
O=C1CC(SC2=NCCS2)C(=O)N1c1ccc(Br)cc1 (centres undefined)	5.9	-4	-20	-8%	7
CNC(=O)NC(=O)CN1C(=O)NC2(CCOc3ccccc32)C1=O (centres undefined)	-0.3	-6	nt	nt	nt
Cc1ccc(SCC(=O)OC(C)C(=O)NCc2ccccc2)cc1C (centres undefined)	0.6	4	nt	nt	nt
Cc1ccccc1N(CC(=O)NCCc1ccccc1)C(=O)c1ccc(N2CCCC2)nc1	4.8	-6	-24	-2%	-11
O=C(/C=C/c1ccccc1)c1ccc(NC2=NCCCS2)cc1	nt	72	-29	?	-34
Cc1ccnc(NC(=O)C2CC(=O)N(Cc3ccccc3)C2)c1 (centres undefined)	0.7	-5	nt	nt	nt
O=c1c[n+]([O-])c2ccccc2n1OCc1c(F)cccc1F	-17	-12	2	2%	-5
O=C(O)CC(CC(=O)Nc1nncs1)c1ccccc1 (centres undefined)	-4.8	-10	-12	-3%	3
CCOC(=O)C1=C(C)Nc2sc(C(=O)c3ccc(OC)cc3)c(N)c2C1c1ccc(C(=O)OC)cc1 (centres undefined)	-20	94	-7	?	-2
Clc1ccc(CN=C(Nc2ccccc2)NC2CCCCC2)cc1	6.8	23	nt	14%	-37
CCOC(=O)CSc1nc(Nc2ccc3c(c2)OCO3)c2ccccc2n1	6.4	99	-17	31%	-2
Cc1ccc(C(C(=O)NC2CCCC2)N(C(=O)c2csnn2)c2ccccc2)o1 (centres undefined)	-0.6	-5	nt	nt	nt
COc1ccc(OC)c(NC(=O)c2ccc(CN(c3cc(Cl)ccc3C)S(=O)(=O)c3ccccc3)cc2)c1	-0.1	-6	-33	-3%	-3
CCOC(=O)CSc1ccc(C(=O)Nc2ccc(OC)cc2)cn1	1.0	98	nt	?	-1
O=C(N=C1SC2CS(=O)(=O)CC2N1c1cc(Cl)ccc1Cl)C1CC1 (centres undefined)	-0.4	6	nt	nt	nt
N#CC1(NC(=O)CSc2ccccn2)CCCCC1	-1.1	-1	nt	nt	nt
CCOc1ccc(NC(=O)CSc2nc3ccsc3c(=O)n2CCC(=O)O)cc1	-0.6	-1	nt	nt	nt
Cc1cc(C(F)(F)F)c(C#N)c(N2CCOCC2)n1	-0.2	7	25	-9%	10
CC(C)c1cc(C(=O)O)n(-c2ccccc2)n1	4.0	1	-18	0%	12
CCCn1c(CN2CCN(C(=O)OCC)CC2)nc2c1c(=O)n(C)c(=O)n2C	-8.4	5	nt	0%	-1	Arbovirus anti repeat=3
CCN(c1cccc(C)c1)C(C(=O)Nc1ccc(OC)cc1)c1cc2c(cc1[N+](=O)[O-])OCO2 (centres undefined)	6.5	-1	-2	1%	-9
Cc1ccc2c(c1)nnn2C1CCN(S(=O)(=O)c2ccc(C(=O)N3CC(C)CC(C)C3)cc2)CC1 (centres undefined)	1.0	-5	-23	8%	3
O=C(Nc1ccc(C(=O)O)cc1)Nc1cccc([N+](=O)[O-])c1	-1.9	-7	-3	9%	-6
CCc1nn2c(=O)cc(CSc3nc(C)cc(=O)[nH]3)nc2s1	1.4	-9	-37	-8%	-1
Cc1ccc2occ(/C=C/C(=O)c3ccccc3O)c(=O)c2c1	-4.7	nt	-16	1%	0
CCN(CC)CCC(c1ccc(OC)cc1)c1c(O)cc(OC)cc1OC (centres undefined)	-4.0	-11	nt	-1%	nt
O=C(c1ccccc1F)N1CCN=C1SCc1cccnc1	nt	-2	-36	-1%	0	Arbovirus anti repeat=-3
O=C(N/N=C/c1cccnc1)c1cc2ccccc2o1	0.6	4	-21	1%	0
CCc1nnc(NC(=O)CSc2nnc(-c3c[nH]c4ccccc34)n2C)s1	4.2	-1	-46	0%	-2
Nc1cc(=O)[nH]c(SCc2cccc3ccccc23)n1	5.1	3	nt	nt	nt
Cc1ccc(S(=O)(=O)NC(=O)NCc2ccc3c(c2)OCO3)cc1	-3.1	?	-26	-14%	3
O=C(COc1ccccc1)N(Cc1ccco1)c1ccc(O)cc1	3.8	-10	-2	-2%	1
CCOC(=O)c1cc(C(=O)NN)c(C)nc1C	-0.5	1	-33	5%	3
COCCN(CCOC)Cc1c(O)ccc2c1O/C(=C\c1ccco1)C2=O	-1.3	0	nt	nt	nt
Cc1ccc(S(=O)(=O)N/N=C/c2ccc(C#N)cc2)cc1	1.5	-3	nt	nt	nt
COc1cccc(NC(=O)CN(C)C(=O)c2ccc(-c3ccc(Cl)cc3)o2)c1	8.5	10	nt	nt	nt
O=C(O)/C=C/C(=O)NNC(=O)c1ccc(Cl)cc1Cl	-3.5	-5	nt	-2%	-2
CC(=O)CC(C)=NCCN=C(C)CC(C)=O	-0.9	1	-3	-1%	6
CCCC(=O)Nc1ccc2oc(-c3ccncc3)nc2c1	-0.5	0	-29	1%	-1
Cc1ccc(NC(=S)NCCCN2CCOCC2)cc1	-7.0	-6	-5	-6%	11
O=C(N/N=C/C=C\c1cccc([N+](=O)[O-])c1)c1ccccn1	1.6	49	-21	-10%	-10
CCOC(=O)C1=C(CC)OC(N)=C(C#N)C1c1ccc(NC(C)=O)cc1 (centres undefined)	-5.7	-2	-26	-1%	-2
CC(C)C(=O)OCCN=C1NS(=O)(=O)c2ccccc21	-0.4	0	7	-12%	0
Cc1cccn2c(Nc3ccccc3)c(-c3ccccn3)nc12	6.0	86	nt	?	-9
CC(=O)N1c2ccc(S(=O)(=O)NCCC(=O)Nc3ccc(F)cc3)cc2CC1C (centres undefined)	-3.0	-3	nt	nt	nt
COc1cc(/C=C(/NC(=O)c2ccccc2)C(=O)Nc2ccc(O)cc2)c([N+](=O)[O-])cc1OC	1.5	4	-10	2%	1
O=C(NCc1ccccc1Cl)c1ccc2c(=O)n(CCCN3CCCC3=O)c(=S)[nH]c2c1	-0.1	-9	-41	-7%	-4
CC(C)C(C(=O)Nc1ccc2c(c1)OCCOCCOCCOCCO2)N1C(=O)c2ccccc2C1=O (centres undefined)	2.1	0	nt	1%	3
Cc1cc(OCC(O)CN(CCO)CCO)ccc1Cl (centres undefined)	0.4	1	-33	0%	11
CCNc1nc(OC)nc(N(OC)S(=O)(=O)c2ccc(C)cc2)n1	1.3	3	nt	nt	nt
COCCNC(=O)C(=O)Nc1ccc(Cl)cc1C	0.8	0	nt	2%	-3
CCOC(=O)/C(C#N)=C/Nc1ccsc1C(C)=O	-0.8	-2	nt	-3%	nt
COc1ccc(OCC(=O)N2CCOCC2)cc1	-4.6	11	-34	-6%	14
CCOC(=O)C1CCN(C(=O)CCc2ccc(S(=O)(=O)NCC(C)C)cc2)CC1	2.3	-5	nt	nt	nt
O=C(O/N=C1/CCCc2occc21)c1ccc(F)cc1	1.0	-2	nt	0%	3
CCn1c(SCC(=O)Nc2ccc(NC(C)=O)cc2)nc2c1c(=O)n(C)c(=O)n2C	-0.3	-3	nt	nt	nt
COc1ccc(CNC(=O)c2cccc(NC(=O)c3ccccc3)c2)cc1	2.4	5	nt	1%	1
Cc1ccc(C)c(C(=O)CN2C(=O)CCC2=O)c1	0.2	-13	-54	-2%	5
Cc1ncoc1C(=O)Nc1ncc([N+](=O)[O-])s1	8.6	-8	nt	-1%	0
COc1ccc(S(=O)(=O)Cc2ccc(C(=O)N3CCN(c4ccc(Cl)cc4)CC3)o2)cc1	3.8	5	-51	-4%	7	Arbovirus anti repeat=-11
Next entries follow.
SMILES	RecA intein inh	Mtb betalactam	YopH inh	Mtb H37Rv	Arbovirus anti	others
COc1ccc(S(=O)(=O)Nc2nc3ccccc3nc2Nc2ccc3c(c2)OCO3)cc1	-2.3	2	-20	5%	5
Cc1oc2c(cc(NS(=O)(=O)c3ccc(Cl)cc3)c3ccccc32)c1C(=O)O	4.9	1	nt	nt	nt
O=[N+]([O-])c1ccc(O)c(C=Nc2ccc3c(c2)OCO3)c1	-1.7	92	nt	9%	nt
Cc1cc2c(c(=O)n1Cc1ccccn1)C(C(C)C)C(C#N)=C(N)O2 (centres undefined)	-0.3	-2	-27	-7%	5
COc1ccc(CCNC(=O)C2CCN(C(=O)c3ccc(F)cc3)CC2)cc1	-4.0	3	nt	nt	nt
CN(CCOc1ccc(-c2ccn(S(=O)(=O)c3c(Cl)cccc3Cl)n2)cc1)c1ccccn1	2.6	-10	-51	-2%	-3
COc1ccccc1NC(=O)NC1CCCCCCC1	-5.7	-4	nt	nt	nt
Cc1ccc(C(=O)N/C(=C\c2ccco2)C(=O)NCc2cccnc2)cc1	1.7	-5	0	-6%	5
Clc1ccc(-n2nnnc2-c2ccno2)cc1	-4.9	-2	nt	-9%	nt
Cc1ccc(CNC(=O)c2ccc(NC(=O)CCS(=O)(=O)c3cccs3)cc2)cc1	-1.4	-1	-29	-6%	-3
CCn1cc(C(=O)N[C@@H](CCSC)C(=O)NCCCOC)c(=O)c2cc3c(cc21)OCO3	0.0	-3	nt	nt	nt
CCOC(=O)CNC(=O)C1(c2ccccc2)CCCC1	-1.6	2	-14	-1%	9
CC(C)CNc1oc(-c2ccc(F)cc2)nc1C#N	0.6	?	14	9%	2	Arbovirus anti repeat=6
CN(C)c1nc(Oc2ccc(N)cc2)nc(N(C)C)n1	3.0	-9	4	-4%	-6
Cc1ccc(CN(C(=O)c2cc(=O)c3cc(Cl)c(C)cc3o2)C2CCS(=O)(=O)C2)cc1 (centres undefined)	1.2	60	-26	5%	-7
COc1ccc(NC2=NCC(=O)N2c2ccccc2F)c(OC)c1	-0.7	-4	-34	2%	6
Cc1ccc(NC(=S)N2CCN(S(=O)(=O)c3c(F)cccc3F)CC2)cc1C	-3.3	1	nt	1%	1
Cn1c(SCC(=O)N2CCc3ccccc3C2)nnc1-c1cccs1	-0.9	-8	-1	-9%	7
COc1cccc(C2NC(=O)CCC2[N+](=O)[O-])c1OC (centres undefined)	-1.4	3	nt	nt	nt
CC1CCCC(C)N1CCCNC(=O)CN1C(=O)COc2ccc(S(=O)(=O)N3CCOCC3)cc21 (centres undefined)	1.4	7	nt	nt	nt
COc1cc(CN2CCCC(C(=O)N3CCc4ccccc4C3)C2)cc(OC)c1OC (centres undefined)	-1.9	0	nt	nt	nt
Cc1ccc(C=Nc2cccnc2N)cc1	-33	-3	-23	8%	-6
O=S(=O)(c1ccc(F)cc1)N1CCCC(CO)C1 (centres undefined)	-1.3	-9	-42	nt	6
O=C1c2ccccc2-c2cccnc21	0.6	-8	nt	nt	nt

The last three records of the part above open the next one.
SMILES	RecA intein inh	Mtb betalactam	YopH inh	Mtb H37Rv	Arbovirus anti	others
Cc1ccc(C=Nc2cccnc2N)cc1	-33	-3	-23	8%	-6
O=S(=O)(c1ccc(F)cc1)N1CCCC(CO)C1 (centres undefined)	-1.3	-9	-42	nt	6
O=C1c2ccccc2-c2cccnc21	0.6	-8	nt	nt	nt
COc1nc(C)c2cc(C)oc2n1	0.3	-10	-29	-7%	-3
CCOc1ccc(S(=O)(=O)N2CCC(C(=O)N3CCOCC3)CC2)cc1C	-0.2	-6	nt	nt	nt
Cc1ccc(-c2nc(Nc3ccc(N4CCOCC4)cc3)c3ccccc3n2)cc1	1.8	30	nt	4%	nt
CCn1nc(C(=O)OCC(=O)c2ccc3c(c2)OCCO3)c2ccccc2c1=O	nt	-3	-33	-7%	-4	Arbovirus anti repeat=3
CN(C[C@H](Cc1ccccc1)N(C[C@@H](CC1CCCCC1)N(CCc1ccccc1)N=O)N=O)N=O	1.2	8	nt	-7%	5
Cc1cc2c(sc3ccccc32)c(C)n1	9.1	13	nt	5%	nt
Cc1ccc(CCC(=O)Nc2ccc(S(N)(=O)=O)cc2)o1	-1.9	-6	-13	6%	0
CCOc1ccc(-n2ccnc(SCC(=O)Nc3ccc(CC)cc3)c2=O)cc1	1.7	1	nt	nt	nt
CCCNC(=O)COC(=O)c1n[nH]c2ccccc12	-2.0	-15	nt	-2%	5
Cc1nn(C(=O)N(C)C)c(C)c1CN1C(=O)c2ccccc2C1=O	-2.3	2	nt	nt	nt
COc1ccc(-c2cc(C(F)(F)F)nc(N3CCN(Cc4ccccc4)CC3)n2)cc1OC	12	16	-41	3%	3
Cc1cccc(OCc2nnc(SCc3cc(=O)[nH]c4ccccc34)n2-c2ccccc2)c1	-2.8	7	-21	5%	-13

4 neighbouring entries from above, for reference:
SMILES	RecA intein inh	Mtb betalactam	YopH inh	Mtb H37Rv	Arbovirus anti	others
Cc1ccc(CCC(=O)Nc2ccc(S(N)(=O)=O)cc2)o1	-1.9	-6	-13	6%	0
CCOc1ccc(-n2ccnc(SCC(=O)Nc3ccc(CC)cc3)c2=O)cc1	1.7	1	nt	nt	nt
CCCNC(=O)COC(=O)c1n[nH]c2ccccc12	-2.0	-15	nt	-2%	5
Cc1nn(C(=O)N(C)C)c(C)c1CN1C(=O)c2ccccc2C1=O	-2.3	2	nt	nt	nt
